ALR H2O2 inh = inhibitors of human ALR sulfhydryl oxidase, primary screen, biochemical, H2O2 detection, HRP-luminol luminescence, single point | purified ALR, DTT oxidation | 3.8% of 290,000 active | inhibition, % (no concentration beside the values) | AID 485317, 2010;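 active = mean and each replicate at 75% or more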;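 also: stock transfer was 7.5 nL into about 7.5 µL; 0% = neutral wells and 100% = wells with inactivated enzyme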
Target sequence (P55789 whole entry, looked up): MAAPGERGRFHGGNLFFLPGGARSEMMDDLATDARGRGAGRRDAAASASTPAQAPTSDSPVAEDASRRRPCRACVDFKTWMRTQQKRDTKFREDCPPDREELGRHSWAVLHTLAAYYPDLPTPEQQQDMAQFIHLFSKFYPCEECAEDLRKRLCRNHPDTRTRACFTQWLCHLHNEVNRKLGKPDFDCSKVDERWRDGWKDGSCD
rRNA inh HTS = reduced GFP signal of wild-type E. coli, primary screen, bacterial rRNA inhibitor project, GFP/RFP fluorescence, OD600, single point; 1.6% of 350,000 active; GFP signal change (wild-type ribosome), % (no concentration beside the values); E. coli WT GFP vs humanized-ribosome RFP mutants, 24 h; stronger effect = lower value; DMSO median 0, no signal -100; AID 720706, 2013;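 active = significant combined selectivity score with lowered wild-type GFP, culture density cut under 30%, mutant RFP and density less affected; inactive = any of these conditions unmet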; also: one replicate is shown; some compounds called inactive have numbers as strong as hits
Ecoli growth = E. coli growth inhibition, primary screen, OD600; Escherichia coli growth, 23 h; stronger effect = lower value; OD600 absorbance (concentration not given with the values); 0.21% of 330,000 active;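 active = OD600 absorbance below the run mean of sample wells minus 3.6 SD, in any replicate, cut at about 0.56 in these data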;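 also: stock transfer was 300 nL into about 60 µL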
FGF22 binding = binders of human FGF22 protein, primary screen, FGF22 synaptogenesis inhibitor project, biophysical, thermal shift, single point | Fibroblast growth factor 22 (Homo sapiens), Q9HCT0 | recombinant FGF22 thermal shift, SYPRO orange fluorescence; percent of sucrose octasulfate shift, DMSO zero | calls only at 9.99 µM | 1.5% of 340,000 active | AID 651658, 2012;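 active = melting point raised past a set limit in the mean and every replicate; three in four hits are not shown here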
Beta2AR agonist = beta2AR agonists driving receptor internalization, primary screen, cell-based, FAP fluorogen, flow cytometry; response, % (concentration not given with the values); Am2.2-beta2AR cells; reference of the scale not given here; 0.43% of 340,000 active; AID 504454, 2011; Beta-2 adrenergic receptor (Homo sapiens), P07550;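 active = response above a set limit, near 3 SD of response in nonfluorescent compounds, cut at about 42% in these data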;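 also: stock transfer was 100 nL into about 11 µL; a reference agonist was the positive control; negative values mostly stem from fluorescent compounds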
UCH37 inh = inhibitors of human UCH37 deubiquitinase, primary screen, biochemical, Ub-AMC cleavage, fluorescence; inhibition, % (concentration not given with the values); purified proteasome/UCH37; 0.33% of 330,000 active; AID 588478, 2011;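 active = mean of two replicates above 20%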;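 also: 0% = compound-free wells with enzyme and 100% = wells lacking proteasome; stock transfer was 100 nL into about 20 µL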
Target sequence (Q9Y5K5 whole entry, looked up): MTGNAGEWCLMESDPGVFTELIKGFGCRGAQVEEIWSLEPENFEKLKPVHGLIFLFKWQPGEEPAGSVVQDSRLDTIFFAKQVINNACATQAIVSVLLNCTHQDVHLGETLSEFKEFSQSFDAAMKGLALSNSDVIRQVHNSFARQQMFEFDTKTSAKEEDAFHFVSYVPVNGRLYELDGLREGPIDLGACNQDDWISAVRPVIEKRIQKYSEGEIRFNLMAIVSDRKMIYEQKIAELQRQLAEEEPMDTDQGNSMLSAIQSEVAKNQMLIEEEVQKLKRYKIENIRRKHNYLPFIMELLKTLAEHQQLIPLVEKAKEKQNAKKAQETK
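Signal – fluorescence, ex 355 nm, em 460 nm · System – Proteasome-bound UCH37 · Input – 0.15 nM proteasome as dispensed · Timing – 30 min preincubation with enzyme, 25 min cleavage at room temperature · Read-out basis – percent inhibition of cleavage signal versus uninhibited and no-proteasome wells · Medium – Tris-HCl pH 7.4 with ATP-MgCl2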
HNF4A DNA FP = change in binding of human HNF4A to DNA, primary screen, biochemical, fluorescence polarization, FITC-DNA. Hepatocyte nuclear factor 4-alpha (Homo sapiens), P41235. 1 h. activity change, % at 10 µM. 0.3% of 360,000 active. AID 1224865, 2016; in the data active = activity change above about 30%, passing the limit was not always enough;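 also: controls were the assay level and a saturating level of protein; the project sought stronger binding though the title names inhibitors; some compounds called inactive have numbers as strong as hits; positive values seem to mean higher polarization but the record does not say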
Target sequence (P41235 whole entry, looked up): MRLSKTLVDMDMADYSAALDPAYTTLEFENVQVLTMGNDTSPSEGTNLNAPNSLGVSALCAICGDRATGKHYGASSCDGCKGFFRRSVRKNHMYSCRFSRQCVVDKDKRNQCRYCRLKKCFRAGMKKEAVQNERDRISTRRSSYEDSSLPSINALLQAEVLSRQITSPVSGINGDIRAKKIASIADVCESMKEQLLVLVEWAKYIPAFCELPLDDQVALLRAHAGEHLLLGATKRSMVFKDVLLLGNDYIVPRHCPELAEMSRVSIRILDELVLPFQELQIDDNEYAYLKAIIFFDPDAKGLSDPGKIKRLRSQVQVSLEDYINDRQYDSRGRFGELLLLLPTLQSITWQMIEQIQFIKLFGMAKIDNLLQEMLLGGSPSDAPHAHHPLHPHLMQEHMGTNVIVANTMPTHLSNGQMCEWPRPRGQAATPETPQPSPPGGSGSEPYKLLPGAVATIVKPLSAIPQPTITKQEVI
rRNA inh HTS OD600 = second read-out of rRNA inh HTS, no call of its own (marks repeat the call); OD600 change, %; measured here: OD600 growth;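 optical density of the mix in the first replicate; 0 = DMSO median and -100 = no signal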
rRNA inh HTS RFP = recorded beside rRNA inh HTS, whose call it bears; RFP signal change, %; measured here: RFP humanized mutant strains;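 first replicate; 0 = DMSO median and -100 = no signal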
An asterisk follows results filed as active; i = inactive; · = not tested or not shown. Some of the compounds tested; rates above refer to the full screens.

1. O=C(CCc1nc2ccccc2c(=O)[nH]1)Nc1nnc(SCc2ccccc2F)s1
2. COc1ccc(/C=N/Nc2ccccc2C(=O)O)cc1
3. CCCCn1c(SCC(N)=O)nc2sc3c(c2c1=O)CCC3
4. Cc1cccc(C(=O)Nc2ccc(C(=O)N/N=C/c3ccc4c(c3)OCO4)cc2)c1
5. O=c1[nH]c(-c2ccccn2)nc2sc(-c3ccccc3)cc12
6. Cc1csc(N/N=C\c2cccnc2)n1
7. CC1=NN(c2ccccc2)C(=O)/C1=C/c1cccc(C)c1
8. CCCCSc1nnc2c(n1)OC=Nc1ccccc1-2

screen / no.	1	2	3	4	5	6	7	8
ALR H2O2 inh	-3.3	·	0.3	0.3	·	14.0	94.4*	4.4
rRNA inh HTS	3.1	-6.2	5.5	6.1	-25.4	11.8	10.5	3.3
rRNA inh HTS OD600	1.5	-3.1	-3.0	3.4	-27.2	7.3	13.6	-2.9
rRNA inh HTS RFP	4.7	5.4	3.2	0.3	-3.2	-2.5	-1.6	-1.2
Ecoli growth	0.617	·	0.672	·	0.611	·	·	0.666
FGF22 binding	i	i	i	i	i	i	i	i
Beta2AR agonist	8.4	-1.7	-14.2	-0.3	-2.5	-12.2	14.2	2.8
UCH37 inh	0.7	·	-0.7	·	-280.2	·	·	7.2
HNF4A DNA FP	12.4	4.2	2.0	-4.5	0.8	5.2	-4.1	2.3

9. COc1cccc(C(=O)Nc2ncc3c(n2)CC(c2ccc(OC)cc2OC)CC3=O)c1 (stereo unspecified)
10. CCC1(C)COC2(OC1)C(=O)Nc1ccccc12 (stereo unspecified)
11. COc1ccccc1/C=N/NC(=O)CNC(=O)c1ccc(S(=O)(=O)N2CCCC2)cc1
12. COc1ccc(-c2nn(C)c3sc(C(=O)NCCN(C)C)cc23)cc1OC
13. Cc1csc(NC(=S)NC(=O)c2ccccc2)n1
14. CCOC(=O)c1sc(NC(=O)c2cc3n(n2)C(C(F)(F)F)CC(c2ccccc2)N3)c(C(=O)OCC)c1C (stereo unspecified)
15. N#Cc1ccc(N2Cc3ccccc3C2=NC(=O)c2cccs2)cc1
16. NS(=O)(=O)c1ccc(CCNC(=O)CNC(=O)Cc2ccccc2)cc1

screen / no.	9	10	11	12	13	14	15	16
ALR H2O2 inh	-3.5	-2.1	-6.0	-13.1	·	-6.4	1.5	1.0
rRNA inh HTS	·	·	9.5	-6.5	-3.6	·	7.3	6.9
rRNA inh HTS OD600	·	·	10.1	0.5	-2.5	·	12.2	15.9
rRNA inh HTS RFP	·	·	-2.7	-0.7	-1.5	·	-3.6	-1.4
Ecoli growth	0.692	0.669	·	·	0.666	0.68	·	0.662
FGF22 binding	·	·	i	i	i	·	i	i
Beta2AR agonist	-3.0	0.4	-1.9	-8.3	-7.3	0.5	-7.3	-2.7
UCH37 inh	1.6	-0.8	·	·	4.2	0.8	1.2	-0.3
HNF4A DNA FP	2.9	1.4	1.8	-2.8	0.4	-1.4	0.2	0.2

17. OCCCNc1nc(-c2ccc(Cl)cc2)nc2ccccc12
18. COc1cccc2cc(C(=O)CS(=O)(=O)c3ccc(C(C)(C)C)cc3)c(=O)oc12
19. CC(C)c1ccc(OCCCCCN2CCOCC2)cc1
20. CCCNC(=S)N1CCN(c2nc(-c3ccc(C)cc3)cs2)CC1
21. O=S(=O)(Nc1ccc(Br)cn1)c1ccc2ccccc2c1
22. O=C(NNC(=O)C1CC=CCC1)c1ccccc1O (stereo unspecified)
23. COc1cccc2c1C(=O)C=C(C)C2=O
24. CC(C)COc1ccc(CN=C(N)N=C(N)N)cc1Cl

screen / no.	17	18	19	20	21	22	23	24
ALR H2O2 inh	97.7*	17.5	1.3	5.3	6.0	-1.7	-5.9	-11.8
rRNA inh HTS	-41.0	-1.0	-0.8	-2.7	-1.3	2.5	27.4	-22.1
rRNA inh HTS OD600	-66.7	4.7	8.6	1.1	-14.5	4.4	-0.7	-31.6
rRNA inh HTS RFP	2.8	-1.7	2.4	-0.2	-1.5	-0.3	16.3	0.7
Ecoli growth	0.692	0.715	0.667	0.656	0.606	0.684	0.638	0.656
FGF22 binding	i	i	i	i	i	i	i	i
Beta2AR agonist	2.7	0.4	5.0	6.2	7.0	-0.3	12.2	-45.2
UCH37 inh	0.8	1.6	2.8	4.0	1.5	-21.3	18.5	5.3
HNF4A DNA FP	2.2	-0.3	1.5	3.3	2.5	2.1	-1.9	0.2

25. O=C(Nc1ccccc1C(F)(F)F)N1CCC(n2c(=O)[nH]c3ccccc32)CC1
26. COc1ccc(C(=O)Cn2cc[n+](C)c2)cc1
27. O=C(COc1ccccc1Cl)Nc1ccc(CN2CCOCC2)cc1
28. CC1CCN(S(=O)(=O)c2ccc(S(=O)(=O)NCC3COCCO3)cc2)CC1 (stereo unspecified)
29. CC12CN3CC(C)(CN(C1)C3c1ccc3c(c1)OCO3)C2 (stereo unspecified)
30. Cc1ccc(C(=O)Nc2cccc(C(=O)N3CCN(C)CC3)c2)cc1
31. COc1ccc(CNC(=O)CSc2ncn[nH]2)cc1
32. O=[N+]([O-])/C(=C\Nc1ccc(F)cc1F)S(=O)(=O)c1ccccc1

screen / no.	25	26	27	28	29	30	31	32
ALR H2O2 inh	1.2	-5.3	0.1	0.0	1.0	2.6	0.2	-3.8
rRNA inh HTS	·	8.0	1.5	11.8	7.5	·	·	1.1
rRNA inh HTS OD600	·	13.8	-6.7	1.5	4.0	·	·	-0.2
rRNA inh HTS RFP	·	1.0	-0.4	-7.7	-0.9	·	·	2.7
Ecoli growth	0.757	0.655	0.65	0.7	0.664	0.694	0.745	0.672
FGF22 binding	·	i	i	i	i	·	·	i
Beta2AR agonist	1.2	0.4	8.3	2.1	-15.1	8.8	2.4	-6.3
UCH37 inh	-2.8	1.8	2.8	4.3	2.2	0.3	-4.8	2.4
HNF4A DNA FP	-0.9	-5.7	-0.1	-0.7	2.0	-0.8	-0.5	-2.0

33. CCNC(=S)NNC(=O)c1cc(-c2cccc(C)c2)nc2ccccc12
34. CCc1ccc(NC(=O)C(CC)Sc2nc3cc4c(cc3c(=O)n2Cc2ccco2)OCO4)cc1 (stereo unspecified)
35. CC1Cc2cc(S(=O)(=O)NCCC(=O)N(C)Cc3ccccc3)ccc2N1C(=O)C1CC1 (stereo unspecified)
36. CCc1ccccc1N1C(=O)C2C3C=CC(CC3)C2C1=O (stereo unspecified)
37. CCN(CC)CCNC(=O)c1ccc(-n2c(C)cc3c2CCCC3=O)cc1
38. CC1=NN(C(C#N)c2ccc(F)cc2)C(C)(C)C1 (stereo unspecified)
39. CC(C)CNc1ncnc2c1ncn2[C@H]1CN(Cc2ccco2)C[C@@H](CO)O1
40. CN1CCN(C(=O)/C(=C\c2cccs2)NC(=O)c2cccs2)CC1

screen / no.	33	34	35	36	37	38	39	40
ALR H2O2 inh	-15.1	58.1	-1.7	-9.2	-48.7	·	·	9.5
rRNA inh HTS	-30.6	·	-9.6	11.1	3.5	2.9	9.1	·
rRNA inh HTS OD600	-47.2	·	-10.8	-2.9	1.1	3.1	17.3	·
rRNA inh HTS RFP	-26.8	·	3.9	1.3	2.8	0.7	-1.2	·
Ecoli growth	0.717	0.675	0.699	0.642	0.696	0.719	·	0.666
FGF22 binding	i	·	i	i	i	i	i	·
Beta2AR agonist	0.5	1.2	-17.3	0.7	11.4	-241.5	·	-18.4
UCH37 inh	2.4	2.0	3.1	-0.8	-31.9	4.9	·	2.9
HNF4A DNA FP	1.6	2.8	5.5	-1.8	4.0	0.4	0.7	1.3

The last three entries of the section before open the next one.
38. CC1=NN(C(C#N)c2ccc(F)cc2)C(C)(C)C1 (stereo unspecified)
39. CC(C)CNc1ncnc2c1ncn2[C@H]1CN(Cc2ccco2)C[C@@H](CO)O1
40. CN1CCN(C(=O)/C(=C\c2cccs2)NC(=O)c2cccs2)CC1
41. COc1ccccc1/C(C)=N/NC(=O)c1nnn(-c2nonc2N)c1C(C)C
42. O=C(N/N=C/c1cn(Cc2ccccc2)c2ccccc12)c1cccnc1
43. O=C(N/N=C/c1cc(Br)c(O)c(Br)c1)c1cccnc1
44. C1CC(=NN=C2CCSCC2)CCS1
45. C/C=C/c1ccc(OCC(=O)N(CCOC)c2c(N)n(CCCC)c(=O)[nH]c2=O)c(OC)c1
46. CCCOc1ccc(N2C(=O)CC(N3CCN(c4nc5ccccc5s4)CC3)C2=O)cc1 (stereo unspecified)
47. COc1ccc(CNc2ccc(-c3ccccc3OC)nn2)cc1
48. COc1ccc2cc(C(c3nnnn3Cc3ccc(F)cc3)N3CCCCCC3)c(=O)[nH]c2c1 (stereo unspecified)

screen / no.	38	39	40	41	42	43	44	45	46	47	48
ALR H2O2 inh	·	·	9.5	-1.9	-8.9	38.9	·	·	-8.5	0.1	·
rRNA inh HTS	2.9	9.1	·	-20.0	-28.1	-4.1	22.9	6.9	·	·	0.7
rRNA inh HTS OD600	3.1	17.3	·	-18.6	-25.0	-3.9	12.8	14.6	·	·	3.8
rRNA inh HTS RFP	0.7	-1.2	·	1.7	-1.4	-6.0	0.1	0.5	·	·	6.8
Ecoli growth	0.719	·	0.666	·	·	·	0.637	0.701	0.829	0.683	0.713
FGF22 binding	i	i	·	i	i	i	i	i	·	·	i
Beta2AR agonist	-241.5	·	-18.4	-12.4	1.3	-8.5	2.3	-2.0	-7.2	2.0	-2.2
UCH37 inh	4.9	·	2.9	·	·	·	0.9	1.3	-0.5	2.8	-2.2
HNF4A DNA FP	0.4	0.7	1.3	2.9	4.7	5.7	3.9	0.2	-0.5	-3.4	1.1

49. CCc1nc2c(OCc3ccccc3C)cccn2c1N(C)C(=O)c1ccco1
50. Cc1cc(NC(=O)CSc2nnc(COc3cccc(C)c3C)n2C)no1
51. COc1ccccc1S(=O)(=O)CC(O)COc1ccccc1Cl (stereo unspecified)
52. CC1(C(=O)NS(=O)(=O)c2ccc(Cl)s2)CCN1C(=O)Cc1ccc(-c2ccccc2)cc1 (stereo unspecified)
53. CCOc1cc(-c2nc3ccccn3c2NCC2CCCO2)ccc1O (stereo unspecified)
54. CCOC(=O)c1c(C)nn(-c2ccc(NC(=O)CSCC(=O)O)cc2)c1C
55. Cc1ccc(SC(C)C(=O)Nc2ccccc2-c2ccccc2)cc1 (stereo unspecified)
56. COc1ccc(CCNC(=O)COC(=O)c2ccc[nH]c2=O)cc1

screen / no.	49	50	51	52	53	54	55	56
ALR H2O2 inh	·	-3.5	-0.2	·	68.7	13.7	-21.4	-2.1
rRNA inh HTS	8.6	·	3.7	-19.2	·	1.0	·	·
rRNA inh HTS OD600	5.0	·	2.9	-15.6	·	0.7	·	·
rRNA inh HTS RFP	0.4	·	-0.3	0.7	·	2.7	·	·
Ecoli growth	·	0.709	0.674	·	0.727	0.684	0.697	0.685
FGF22 binding	i	·	i	i	·	i	·	·
Beta2AR agonist	·	2.8	1.2	·	20.2	1.4	10.1	-0.9
UCH37 inh	·	1.2	6.3	·	-186.4	5.8	3.2	4.1
HNF4A DNA FP	0.9	-2.4	5.8	3.9	4.0	-2.6	-0.1	4.5

Bioassay records deposited in PubChem BioAssay by several laboratories.
